Biofilm kill mix – clotrimazole potentiators killing C. albicans biofilm, primary screen, 4-compound mixtures; C. albicans biofilm persisters + clotrimazole, fluorescence viability; primary screen in compound mixtures of four per well; inhibition, % at 7.6 µM; hit rate 0.02% among 120,000;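 active = inhibition above 30.3% in the primary screen of four-compound pools, then above 30% when the compound was retested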;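 also: compounds exposed to preformed 24 h biofilms for 48 h; the number belongs to the whole pool; some results filed as inactive read as strong as hits; inactives centre near 12; 0% = biofilm with clotrimazole alone and 100% = kill control; retested singly at about 60 µM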
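Incubation: 24 h biofilm formation, then 48 h compound exposure, 37 °C | Material: C. albicans biofilms | Buffer or medium: RPMI/MOPS medium, pH 7.0 | Measured by: 2-h Alamar Blue fluorescence, 535/590 nm excitation/emission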
The depositor's hits bear a star. The list is partial; the hit share may differ from the screen's.

Compound	Biofilm kill mix
COc1ccc(N(C)S(=O)(=O)c2cccc(C(=O)NC3CCCCCC3)c2)cc1	11
COc1ccc(CNC(=O)CSc2nnc(C(F)(F)F)n2C)cc1	8
Cc1cccc(NCc2nnc(-c3ccccc3)o2)c1C	17
NC(=S)c1cc2cc(Cl)ccc2oc1=O	22
CN(C)S(=O)(=O)c1ccc(Cl)c(NC(=O)COC(=O)CC(NC(N)=O)c2ccc(Cl)cc2)c1 (stereo unspecified)	16
Cc1cc(C)c(C)c(S(=O)(=O)N2CCN(C(=O)CCC(=O)N3CCOCC3)CC2)c1C	9
Cc1ccsc1/C=C(/C#N)C(=O)NCc1ccccc1	22
O=C(COC(=O)C1=COCCO1)Nc1ccc(OC(F)F)cc1	9
O=C(N/N=C/c1cnc(N2CCCCC2)s1)c1ccc(Cl)cc1	10
COc1ccc(Cl)cc1NC(=O)CN(C)Cc1ccc(OC)c(OC)c1	24
Cc1ccc(S(=O)(=O)Nc2ccc(Cl)cc2C(=O)c2ccc(F)cc2)cc1	16
O=C(N/N=C/c1cccc2nccnc12)c1ccncc1	12
CC1(N2CCCCC2)C(=O)c2ccccc2C1=O	9
COc1ccc(NC(=O)NCCCN2CCC(Cc3ccccc3)CC2)cc1	9
CN1C(=O)/C(=C\c2ccco2)N=C1c1ccc(Cl)cc1Cl	13
Cn1cccc1C(=O)NC(=O)COC(=O)CNC(=O)CNC(=O)c1ccc(Cl)cc1Cl	-7
COc1cc(/C=C2\SC(=O)N(c3ccc(O)cc3)C2=O)cc(OC)c1OC	19
O=C(NC1CCCCC1)c1ccccc1C(F)(F)F	6
CCOC(=O)c1c(C2CC2)csc1NC(=O)COC(=O)c1ccc[n+]([O-])c1	15
COc1ccc(Oc2ccc(C(F)(F)F)cc2NC(=O)c2ccc(F)cc2)cc1	22
CC(C)CC(C(=O)O)N1C(=O)C2C3CC(C2C1=O)C1C(c2ccccc2)c2sc(=O)[nH]c2SC31 (stereo unspecified)	1
O=C(O)c1cc(-c2ccc(/C=N/N3C(=O)C4C5C=CC(CC5)C4C3=O)o2)ccc1Cl (stereo unspecified)	22
COc1ccccc1N1CCN(C(=O)c2coc(=O)c(Br)c2)CC1	19
COc1cc(/C=C/C(=O)O)cc(S(=O)(=O)NC2CC2)c1OC	5
COc1ccc(OC(C)C(=O)NCCC2=CCCCC2)cc1 (stereo unspecified)	10

The list goes on; the last five above are carried over.
Compound	Biofilm kill mix
CC(C)CC(C(=O)O)N1C(=O)C2C3CC(C2C1=O)C1C(c2ccccc2)c2sc(=O)[nH]c2SC31 (stereo unspecified)	1
O=C(O)c1cc(-c2ccc(/C=N/N3C(=O)C4C5C=CC(CC5)C4C3=O)o2)ccc1Cl (stereo unspecified)	22
COc1ccccc1N1CCN(C(=O)c2coc(=O)c(Br)c2)CC1	19
COc1cc(/C=C/C(=O)O)cc(S(=O)(=O)NC2CC2)c1OC	5
COc1ccc(OC(C)C(=O)NCCC2=CCCCC2)cc1 (stereo unspecified)	10
CCCC(=O)Oc1ccc(N(C(=O)CCC)S(=O)(=O)c2cccs2)cc1	20
CCN(CC)S(=O)(=O)c1cc(OCC(N)=O)c(C)cc1Cl	7
COC(=O)c1cc(CNC(=O)c2cccc(Cl)c2Cl)ccc1OC	10
Cc1cccc(C(=O)Nc2ccccc2C(=O)OCC(=O)Nc2ccc(C#N)cc2)c1	9
CS(=O)(=O)N(CCc1ccccc1)CC(=O)N1CCCC1	9
COc1ccc(C(CC(=O)N2CCCC(C)C2)c2c(O)cc(OC)cc2OC)cc1 (stereo unspecified)	10
COc1ccc(-n2nnnc2/C=C\Nc2ccc(C)cc2)cc1	14
Nc1cccc(C(=O)OCC(=O)c2ccccc2)c1	4
COc1ccc(S(=O)(=O)NCC2CCCN(C(=O)c3occc3C)C2)cc1 (stereo unspecified)	-2
COc1cc(/C=C/C(=O)OCc2cn3cc(Cl)ccc3n2)ccc1O	6
CCOc1ccc(NC(=O)CN2C(=O)C(C)SC(C)C2=O)cc1 (stereo unspecified)	17
CN(C)S(=O)(=O)Oc1ccc(C(=O)Nc2cccc(C(F)(F)F)c2)cc1	7
CN1CCN(CCCCOc2ccccc2-c2ccccc2)CC1	12
Cn1/c(=N/N=C/c2ccccn2)sc2ccccc21	4
O=C(Nc1cc(=O)[nH]c2nc(-c3ccccc3)nn12)c1ccccc1Cl	24
O=C(COc1ccccc1C(=O)Nc1ccccc1)c1ccc(Br)cc1	-3
Cc1ccc(/C=N/NC(=O)C(C)Oc2ccccc2[N+](=O)[O-])s1 (stereo unspecified)	11
N#Cc1ccc(N2C(=O)[C@@H]3C(C(=O)c4cnccn4)=NN[C@@H]3C2=O)cc1	-5
O=C(NCCSc1ccccc1)c1ccccc1Cl	24
Cc1ccccc1OCc1nnc(SCC(=O)NCc2ccco2)n1C	25
CCN(CC)S(=O)(=O)c1ccc(NCC2COc3ccccc3O2)c([N+](=O)[O-])c1 (stereo unspecified)	11
N#Cc1ccc(NC(=O)Cn2c3[n+](c4ccc(C(F)(F)F)cc42)CCCCC3)cc1	-8
COc1ccccc1-n1c(CNc2ccc(F)cc2)nnc1SCC(=O)Nc1cc(C)on1	9
O=c1c2c(nc3cc(-c4ccc(Br)cc4)[nH]n13)CCCC2	8
CNC(=S)Nn1cnc2ccccc21	15
CC1=C(C(=O)O)N2C(=O)C(NC(=O)c3nn(C)c(C)c3Cl)C2SC1 (stereo unspecified)	26
CCn1nc(C)c(CNC(=O)Nc2ccc3c(c2)OCO3)c1C	18
CC(C)(C)NC(=O)c1ccc2nsnc2c1	14
O=C(Nc1ccon1)c1ccc(OC2CCCC2)cc1	15
COC(=O)C1CCN(c2cc(=O)n(Cc3ccc(F)cc3)c(=O)[nH]2)CC1	17
COCCN(C(=S)Nc1cc(C)cc(C)c1)C(C)c1ccco1 (stereo unspecified)	20
COc1cc(/C=N/NC(=O)c2cccnc2)ccc1OS(=O)(=O)c1ccc(C)cc1	-1
COC(=O)c1c(C)[nH]c(C(=O)CSc2ncnc3sc(-c4ccccc4)cc23)c1C	12
Cc1cc(C)cc(OC(=O)CCN2C(=O)c3ccccc3C2=O)c1	-2
COc1cc(/C=N/NC(=O)c2ccncc2)ccc1OCCN1CCCCC1	16
CC1CC(=O)NN=C1c1cccs1 (stereo unspecified)	19
C/C(CC(=O)NC1CCCCC1)=N\NC(=O)Cc1ccc(-c2ccccc2)cc1	-9
O=C(O)CCCC(=O)N1CCN(C(c2ccccc2)c2ccccc2)CC1	3
O=C(CCC1CC(=O)Nc2ccccc21)NCc1cccnc1 (stereo unspecified)	8
O=C(CSc1nc2c(sc3ccccc32)c(=O)n1-c1ccccc1)NCc1ccco1	10
CN(C)S(=O)(=O)c1cc(NC(=O)c2cc(=O)[nH]c3ccccc23)ccc1Cl	11
O=C(NCCCN1CCOCC1)c1ccc(CSCc2cccc(Cl)c2)o1	8
Cc1cc(C)n(CC(=O)c2ccc(Cl)cc2)n1	7
Cc1cccc(NC(=O)C2CCCN2/C=C/C(=O)C(F)(F)F)c1C (stereo unspecified)	5
O=C(Nc1cccc(-c2csc(Nc3ccccc3)n2)c1)c1ccccc1	13
CCN(CC)C(=O)CN1C(=O)C(=O)c2ccccc21	1
Cc1ccccc1NC(=S)Nc1ccc2[nH]c(=O)[nH]c2c1	11
COc1ccc(C(=O)NCC(=O)OCC(=O)Nc2sccc2C#N)cc1OC	17
O=[N+]([O-])c1ccc(N2CCN(CCO)CC2)cc1NCc1ccco1	14
CCN(Cc1cnn(C)c1)C(=O)CC1C(=O)NCCN1Cc1cccc(OC)c1OC (stereo unspecified)	8

Next entries.
Compound	Biofilm kill mix
C=CCO/N=C/C1C(=O)CC(C)(C)CC1=O	13
COc1cc2cc(CN(Cc3cccnc3)C(=O)Nc3ccccc3)c(=O)[nH]c2cc1OC	5
Nc1ccc2nc[nH]c2c1	9
Cc1ccc(N2CCOCC2)c2c1C(=O)c1ccccc1C2=O	16
O=C(CSc1nc2ccccc2c(=O)n1Cc1ccco1)N1CCCC1	17
Cn1c(=O)c2c3c(sc2n2c(SCc4ccccc4)nnc12)CCCC3	6
COc1ccc(-c2cn3cc(Br)cnc3n2)cc1	8
Cc1cc(N2CCOCC2)nc2ccccc12	15
O=C(O)c1ccc(CNCc2ccc(F)cc2)cc1	10
CCOc1ccc(NC(=O)Cc2cccc3ccccc23)c([N+](=O)[O-])c1	10
Cc1ccc(S(=O)(=O)N2CCNC(=O)CC2)cc1	7
Cc1ccc2c(c1)nnn2C1CCN(S(=O)(=O)c2ccc(C(=O)O)cc2)CC1	23
CC1(C)Cc2c(sc3nc(N/N=C/c4ccccc4)[nH]c(=O)c23)CO1	10
O=C(CNS(=O)(=O)c1ccc(Br)s1)NC1CCCc2ccccc21 (stereo unspecified)	3
Cc1ccc(N=C2CCCN2Cc2ccccc2)c(C#N)c1	19
COc1ccc(N(CCC(=O)O)S(=O)(=O)c2ccc(C)cc2C)cc1	14
COc1cc(OC)cc(-c2cc(N3C(=O)Nc4ccccc4N3O)n[nH]2)c1	8
CCc1cccc(C)c1NC(=S)NCc1ccc2[nH]c(C)cc2c1	5
COc1cccc(CCc2nnc(CCC(=O)N3CCN(Cc4ccccn4)CC3)o2)c1	0
CCCCCSc1ncccc1C(=O)O	4
Nc1nc2ccccc2n1/N=C/c1cccnc1	9
S=C(NCCN1CCOCC1)NC1CCCCC1	27
CC(C)CN(C)C(=O)CC1C(=O)NCCN1C (stereo unspecified)	-5
O=C(NN1C(=O)c2cc(Br)ccc2NC1c1ccccc1Cl)c1ccncc1 (stereo unspecified)	8
CCN(C#N)c1nc(NC(C)C)nc(NC(C)(C)C)n1	11

In a second layout: results already given.
Compound: O=C(O)CCCC(=O)N1CCN(C(c2ccccc2)c2ccccc2)CC1
  Biofilm kill mix = 3
Compound: O=C(CCC1CC(=O)Nc2ccccc21)NCc1cccnc1 (stereo unspecified)
  Biofilm kill mix = 8

New compounds follow
Compound	Biofilm kill mix
CCCN(C(=O)/C=C/c1ccco1)c1c(N)n(Cc2ccccc2)c(=O)[nH]c1=O	5
CNC(=S)NNC(=O)CNc1ccc(C)c(Cl)c1	16
O=[N+]([O-])c1ccc(C2=NN(CCO)C(=Nc3ccc(OC(F)(F)F)cc3)SC2)cc1	22
CSc1nnc(-c2ccc(Br)s2)n1C	9
CCO[C@H]1OC(C(=O)N2CCN(Cc3ccc4c(c3)OCO4)CC2)=C[C@@H](C2CC2)[C@@H]1CCCO	11
COc1ccc(/C=C(\C#N)C(=O)ONC2=NCCCCC2)cc1	12
O=C(CCSc1ccccc1)NC(=O)COC(=O)C1CCCCC1	-2
COc1ccccc1/C=C/C(C)=O	9
Cc1nc2ccc(NC(=O)c3ccc(Cl)nc3)cc2s1	15
CN(C(=O)c1c(Br)cnn1C)C12CC3CC(CC(C3)C1)C2	20
CCC(CC)C(=O)c1c[nH]c(C(=O)NCCOC)c1	13
Cc1c(N=C2N=C(NC(=O)Nc3ccc(Cl)cc3)c3ccccc32)c(=O)n(-c2ccccc2)n1C	11
O=C(CN1C(=O)c2cccc3cccc(c23)C1=O)N1CCOCC1	8
CCOC(CNC(=O)c1cccc([N+](=O)[O-])c1)OCC	5
Cc1ccc(C)n1-c1ccc(C(=O)NN)s1	25
CC(=O)Nc1ccc(S(=O)(=O)NNC(=O)COc2ccc(Cl)cc2Cl)cc1	13
CN1CCN(C(=O)C2=C[C@H](C3CCCCC3)C[C@H](OCc3ccc(CO)cc3)O2)CC1	21
O=C(NCCn1cccn1)c1ccc(OC2CCN(C(=O)C3CC3)CC2)cc1	10
CCCCN1C(=O)C(=O)N(CC(=O)Nc2cc(OCC)c(N3CCOCC3)cc2OCC)C1=O	1
COCCN(CCOC)C(=S)Nc1ccccc1Cl	3
O=C(NCc1ccc(Cl)cc1)c1ccc(-n2cccn2)nc1	12
COc1cc(OC)c2c(-c3ccccc3)cc(=O)oc2c1C(CC(=O)N1CCOCC1)c1ccc(N(C)C)cc1 (stereo unspecified)	8
Cc1cccc(CCNC(=O)CC2C(=O)NCCN2Cc2ccc(F)c(F)c2)n1 (stereo unspecified)	5
CCOc1ccc(CNC(=O)CCS(=O)(=O)Cc2cccc(Cl)c2)cc1OC	14
CNC(=S)N1CCn2cccc2C1c1ccc(F)cc1 (stereo unspecified)	7
COc1ccc(CCNC(=O)c2cc(-c3ccccn3)nc3c(Cl)cccc23)cc1OC	-4
CC(=O)/C(=N\Nc1cccc(Cl)c1)Sc1nnc(-c2ccccc2)n1-c1ccccc1	15
O=C(C(Cc1ccccc1)N1C(=O)c2ccccc2C1=O)N1c2ccccc2CCc2ccccc21 (stereo unspecified)	12
Cn1c(=O)cc(Nc2ccccc2)c2c(=O)n(-c3ccccc3)c(=O)n(-c3ccccc3)c21	6
COc1ccc(-c2ccc(S(=O)(=O)N3CCCC3)cc2)cc1	14
CCOC(=O)COc1cccc2c(=O)n(CC(=O)NCc3ccccc3)ccc12	18
Cc1ccc(S(=O)(=O)N2CCCCC2)cc1NC(=O)COC(=O)Cc1c(F)cccc1Cl	-2
Cc1nn(C)c(Oc2cccc(C(F)(F)F)c2)c1C=O	14
O=CN1CCCN(Cc2nc(Cc3ccccc3F)no2)CC1	11
COc1ccc(C(=O)Cc2cc(OC)c(OC)cc2C(=O)c2ccccc2F)cc1OC	12

Source: PubChem BioAssay (PCMD)
